Bioassay records as filed in PubChem.
Shn3 3UTR inh – inhibitors of Schnurri-3 3'UTR reporter in osteoblasts; Clone20 osteoblast Shn3 3'UTR firefly luciferase, 24 h; inhibition, % at 12.5 µM; actives 0.52% (n = 360,000); AID 588674;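 active = mean inhibition of at least 75% with every replicate also reaching 75%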;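 note: 0% = median of neutral control wells and 100% = pilot-screen positive control compound; some compounds past the cut are filed as inactive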
TRPM1 prom inh – reduces MITF-dependent TRPM1 promoter luciferase signal; actives 0.83% (n = 330,000); AID 488899; SK-MEL-5 TRPM1 promoter luciferase, 24 h; inhibition, % at 12.5 µM;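 active = mean inhibition across replicates of 60% or more, whatever share of single replicates reaches that level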; note: values of inactives mirror those of a sister screen read the other way
PDI turbidity – inhibitors of human protein disulfide isomerase | P07237 | PDI insulin aggregation turbidity, A650, 90 min | inhibition, % at 10 µM | actives 0.052% (n = 350,000) | AID 588391;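 active = mean inhibition across replicates of 30% or more, whatever share of single replicates reach that level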;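 note: absorbance from insulin aggregation driven by PDI reduction with DTT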
Target sequence (P07237 whole entry, looked up): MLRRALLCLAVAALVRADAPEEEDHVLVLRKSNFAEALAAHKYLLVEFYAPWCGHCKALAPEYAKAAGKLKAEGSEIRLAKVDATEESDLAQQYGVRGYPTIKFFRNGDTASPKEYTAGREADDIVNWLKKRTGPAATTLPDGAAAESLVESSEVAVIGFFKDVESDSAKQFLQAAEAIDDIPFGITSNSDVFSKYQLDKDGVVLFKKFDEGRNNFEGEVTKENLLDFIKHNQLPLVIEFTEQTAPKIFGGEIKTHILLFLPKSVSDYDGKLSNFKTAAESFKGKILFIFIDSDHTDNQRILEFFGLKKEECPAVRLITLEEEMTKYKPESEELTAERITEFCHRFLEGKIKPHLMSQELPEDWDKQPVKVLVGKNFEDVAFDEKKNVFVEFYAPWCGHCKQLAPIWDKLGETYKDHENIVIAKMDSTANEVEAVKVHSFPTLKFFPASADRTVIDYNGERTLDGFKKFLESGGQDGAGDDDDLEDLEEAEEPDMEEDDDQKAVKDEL
iPSC survival up – enhancers of human iPSC single-cell survival; hiPSC single-cell survival, ATPlite luminescence; 100% = ROCK inhibitor wells, 0% = DMSO; survival enhancement, % at 20 µM; AID 602274; actives 0.044% (n = 360,000); in the data active = survival enhancement above about 18%;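 note: cells exposed to compounds for 16 hours before the ATP read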
CaV13 ICDI inh – Primary screen for inhibitors of IQ motif and Ca2+-dependent inactivation inhibitor domain binding in CACNA1D, Förster resonance energy transfer in living cells, …; AID 743397; actives 0.098% (n = 340,000); HEK cells, CFP/YFP FRET ICDI-IQ, plate reader, 10 min; percent FRET-ratio fall versus neutral wells; inhibition, % at 12.3 µM;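 active = mean replicate inhibition of at least 30% and at least 1% of replicates passing that level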;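 note: 0% = median of the neutral control wells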
NR2E3 agonist – agonists of human nuclear receptor NR2E3; GST-NR2E3/biotin-RetCOR TR-FRET, 1536-well; AID 2300; Q9Y5X4; inhibition of corepressor binding, % at 4.78 µM; actives 0.12% (n = 320,000);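 active = percent inhibition above the cutoff of mean plus 3 SD of all tested compounds, set per screening campaign, cut at about 20% in these data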;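 note: 0% = DMSO wells and 100% = biotin wells as full block of FRET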
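Test system – NR2E3–RetCOR corepressor complex · Quantity – NR2E3 fusion 1.35 nM · Buffer or medium – Tris pH 7.5 · Incubation – Compound–protein incubation for 5 h at 4 °C · Technique – TR-FRET, Eu(K)-anti-GST donor, streptavidin-D2 acceptor, ex 340, em 617/671 nm · Evaluation – percent inhibition of 671/617 nm emission ratio versus biotin and DMSO controls · Plate – 1536-well format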
Cardio protect – modulators protecting cardiomyocytes from myocardial damage. H9c2 cardiomyocytes, H2O2 injury protection, ATPLite, 2 h. protection from H2O2 cell death, % at 20 µM. actives 0.63% (n = 360,000);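 active = compounds giving at least 50% protection of heart cells from peroxide-induced death in the single-dose screen, raw or plate-pattern-corrected value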;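 note: 0% = DMSO wells with peroxide and 100% = DMSO wells without peroxide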
Numbers without * were called inactive; & = joins results of further samples. Not all compounds are listed; rates above refer to the full screens.

For CC(C)Nc1nc(NCc2ccccc2)c2sccc2n1 the results were Shn3 3UTR inh -10, PDI turbidity -1, iPSC survival up -1.2, CaV13 ICDI inh -6 and Cardio protect -19.
For CN1CCC[C@H]1c1cccnc1 the results were Shn3 3UTR inh 2&5, TRPM1 prom inh -8&-4, PDI turbidity -5&-9, iPSC survival up 1.5&-0.2, CaV13 ICDI inh -5&-5, NR2E3 agonist 2&0 and Cardio protect 10&2.
Screening CN(C)CC[C@@H](c1ccc(Cl)cc1)c1ccccn1 returned Shn3 3UTR inh -12, TRPM1 prom inh -16, PDI turbidity 1, iPSC survival up 0.1, CaV13 ICDI inh -5, NR2E3 agonist -1 and Cardio protect 7.
Cc1nc2n(c(=O)c1CCN1CCC(c3noc4cc(F)ccc34)CC1)CCCC2 was read as Shn3 3UTR inh 20, TRPM1 prom inh 4, PDI turbidity -6, iPSC survival up 1.4, CaV13 ICDI inh -5, NR2E3 agonist 5 and Cardio protect -9.
O=c1[nH]c(=O)n(C2C[C@H](O)[C@@H](CO)O2)cc1C(F)(F)F (some centres undefined) was read as Shn3 3UTR inh 48, TRPM1 prom inh 8, PDI turbidity 6, iPSC survival up 0.9, CaV13 ICDI inh -6, NR2E3 agonist 5 and Cardio protect 24.
Screening COc1ccc(-c2csc(Nc3cccc(C)n3)n2)cc1OC returned Shn3 3UTR inh -86, PDI turbidity 5, iPSC survival up -0.9, CaV13 ICDI inh -17 and Cardio protect -1.
`CCC1(c2ccccc2)C(=O)NCNC1=O` gave Shn3 3UTR inh -14, TRPM1 prom inh -12, PDI turbidity 3, iPSC survival up 1.6, CaV13 ICDI inh -5, NR2E3 agonist 0 and Cardio protect 8.
`Cc1nc2sccn2c(=O)c1CCN1CCC(=C(c2ccc(F)cc2)c2ccc(F)cc2)CC1` gave Shn3 3UTR inh -9, TRPM1 prom inh 2, PDI turbidity -4, iPSC survival up -2.4, CaV13 ICDI inh -5, NR2E3 agonist 4 and Cardio protect -5.
O=C(O)[C@H](O)[C@@H](O)C(=O)O was read as Shn3 3UTR inh -6, TRPM1 prom inh -8, iPSC survival up -1.1, NR2E3 agonist 0 and Cardio protect 0.
Screening Cc1cc(C(C)(C)CC(C)(C)C)ccc1OCCOCC[N+](C)(C)Cc1ccccc1 returned Shn3 3UTR inh 88*, TRPM1 prom inh 96*, PDI turbidity 23, iPSC survival up -5.1, CaV13 ICDI inh -5, NR2E3 agonist 1 and Cardio protect -47.
For NCCN1C(=O)c2ccccc2C1(O)c1ccc(Cl)cc1 (centres undefined) the results were Shn3 3UTR inh 0, PDI turbidity -3, iPSC survival up 0.2, CaV13 ICDI inh -6 and Cardio protect 2.
NCCS was read as Shn3 3UTR inh -13, TRPM1 prom inh -14, PDI turbidity -1, iPSC survival up 4.4, CaV13 ICDI inh -5, NR2E3 agonist -1 and Cardio protect -3.
`NCCc1ccc(O)c(O)c1` gave Shn3 3UTR inh -15, TRPM1 prom inh -4, PDI turbidity -1, iPSC survival up -3.0, CaV13 ICDI inh -5, NR2E3 agonist 5 and Cardio protect 0.
For OCc1cccnc1 the results were NR2E3 agonist 4.

Three records drawn at random from the list so far, as already listed:
Screening Cc1cc(C(C)(C)CC(C)(C)C)ccc1OCCOCC[N+](C)(C)Cc1ccccc1 returned Shn3 3UTR inh 88*, TRPM1 prom inh 96*, PDI turbidity 23, iPSC survival up -5.1, CaV13 ICDI inh -5, NR2E3 agonist 1 and Cardio protect -47.
O=C(O)[C@H](O)[C@@H](O)C(=O)O was read as Shn3 3UTR inh -6, TRPM1 prom inh -8, iPSC survival up -1.1, NR2E3 agonist 0 and Cardio protect 0.
Screening CN(C)CC[C@@H](c1ccc(Cl)cc1)c1ccccn1 returned Shn3 3UTR inh -12, TRPM1 prom inh -16, PDI turbidity 1, iPSC survival up 0.1, CaV13 ICDI inh -5, NR2E3 agonist -1 and Cardio protect 7.

Structural class: the compounds so far containing fluorine.
Cc1nc2n(c(=O)c1CCN1CCC(c3noc4cc(F)ccc34)CC1)CCCC2 was read as Shn3 3UTR inh 20, TRPM1 prom inh 4, PDI turbidity -6, iPSC survival up 1.4, CaV13 ICDI inh -5, NR2E3 agonist 5 and Cardio protect -9.
O=c1[nH]c(=O)n(C2C[C@H](O)[C@@H](CO)O2)cc1C(F)(F)F (some centres undefined) was read as Shn3 3UTR inh 48, TRPM1 prom inh 8, PDI turbidity 6, iPSC survival up 0.9, CaV13 ICDI inh -6, NR2E3 agonist 5 and Cardio protect 24.
`Cc1nc2sccn2c(=O)c1CCN1CCC(=C(c2ccc(F)cc2)c2ccc(F)cc2)CC1` gave Shn3 3UTR inh -9, TRPM1 prom inh 2, PDI turbidity -4, iPSC survival up -2.4, CaV13 ICDI inh -5, NR2E3 agonist 4 and Cardio protect -5.

An excerpt from above in order of molecular weight, lowest first:
For CN1CCC[C@H]1c1cccnc1 the results were Shn3 3UTR inh 2&5, TRPM1 prom inh -8&-4, PDI turbidity -5&-9, iPSC survival up 1.5&-0.2, CaV13 ICDI inh -5&-5, NR2E3 agonist 2&0 and Cardio protect 10&2.
`CCC1(c2ccccc2)C(=O)NCNC1=O` gave Shn3 3UTR inh -14, TRPM1 prom inh -12, PDI turbidity 3, iPSC survival up 1.6, CaV13 ICDI inh -5, NR2E3 agonist 0 and Cardio protect 8.
O=c1[nH]c(=O)n(C2C[C@H](O)[C@@H](CO)O2)cc1C(F)(F)F (some centres undefined) was read as Shn3 3UTR inh 48, TRPM1 prom inh 8, PDI turbidity 6, iPSC survival up 0.9, CaV13 ICDI inh -6, NR2E3 agonist 5 and Cardio protect 24.
